Source: PubChem (Broad Institute)
BJeLR viability = BJeLR cell viability loss, primary screen, luminescence, CellTiterGlo ATP | BJeLR fibroblasts viability, 48 h; HRASV12, hTERT and SV40 LT/ST transformed | viability loss activity score, % (test concentration not listed) | hit rate 0.64% among 30,000 | AID 2275, 2010; in the data active means viability loss activity score above about 50%; about a fifth of its hits are not listed in these tables;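 further: higher score means fewer live cells and less ATP luminescence; stock transfer was 50 or 100 nL into about 30 µL; 0% = vehicle wells and 100% = a reference killing control; one replicate is shown; the record names a cut of 85%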
A1 inh = inducers of caspase activity in MEF A1-2A-BIM cells, primary screen, A1 inhibitor project, cell-based, CaspaseGlo luminescence. caspase-Glo luminescence, 3 h; percent of clofoctol signal, DMSO as zero. caspase activation, % (no concentration beside the values). hit rate 0.51% among 21,000;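 active means most replicate scores above 10, or exactly half above 10 with mean activity above 10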;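 further: effector caspase 3 and 7 activity cleaving a DEVD luciferin substrate; 50 nL library stock added to about 30 µL; numbers are from one replicate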
The depositor's hits bear a star; / = no result given. This is a subset; count on the stated rates, not on these rows.

SMILES	BJeLR viability	A1 inh
C[C@H]1CN([C@@H](C)CO)C(=O)c2cccc(NC(=O)C3CCOCC3)c2O[C@H]1CN(C)CC1CCCCC1	3.5	/
COc1ccc(NC(=O)Nc2ccc3c(c2)C(=O)N([C@H](C)CO)C[C@H](C)[C@@H](CN(C)S(=O)(=O)c2cccs2)O3)cc1	-6.8	1.5
C[C@H]1CN([C@@H](C)CO)C(=O)c2cc(NC(=O)CCC(F)(F)F)ccc2O[C@H]1CN(C)C(=O)NC1CCCCC1	2.5	-0.1
Cc1ccc(-n2c(Cc3cccn3C)nnc2SCC(=O)N2CCN(c3ccccc3)CC2)cc1	-8.2	0.1
Cc1noc(C)c1S(=O)(=O)Nc1ccc2c(c1)C(=O)N([C@@H](C)CO)C[C@H](C)[C@@H](CN(C)Cc1ccc(Cl)c(Cl)c1)O2	11	0.0
CNC[C@@H]1Oc2c(NS(C)(=O)=O)cccc2C(=O)N([C@@H](C)CO)C[C@H]1C	-0.8	/
Cc1noc(C)c1S(=O)(=O)Nc1cccc2c1O[C@H](CN(C)S(=O)(=O)c1ccc(Cl)cc1)[C@H](C)CN([C@@H](C)CO)C2=O	6.2	/
O=C1CCC(c2ccccc2)C(=O)C1C(=O)c1ccc(Cl)cc1Cl (centres undefined)	6.6	-0.1
Cc1noc(C)c1NC(=O)N(C)C[C@H]1Oc2ccc(NC(=O)Nc3ccc4c(c3)OCO4)cc2C(=O)N([C@@H](C)CO)C[C@@H]1C	2.2	1.1
C[C@@H]1CN([C@@H](C)CO)C(=O)c2cc(NC(=O)Nc3ccc4c(c3)OCO4)ccc2O[C@H]1CN(C)Cc1ccncc1	-1.6	0.1
CC(=O)NC1C(OCCOc2ccc(Cl)cc2C)OC(CO)C(O)C1O (centres undefined)	5.6	0.0
O=C(Nc1ccccc1)C(c1ccccc1)c1ccccc1	9.5	-1.5
CCCCn1c(SCC)nc2sc3c(c2c1=O)CCCC3	4.5	-0.7
C[C@H]1CN([C@@H](C)CO)C(=O)c2cc(NC(=O)Cc3ccccc3)ccc2O[C@H]1CN(C)C	-1.3	0.5
CCCc1cc(NC(C)c2ccccc2)n2c(nc3ccccc32)c1C#N (centres undefined)	-0.1	-0.6
COc1ccc(S(=O)(=O)Nc2ccc3c(c2)C(=O)N([C@H](C)CO)C[C@H](C)[C@@H](CN(C)C(=O)Nc2ccc(F)cc2)O3)cc1	2.0	-0.3
C[C@@H]1CN([C@@H](C)CO)C(=O)c2cccc(N(C)C)c2O[C@@H]1CN(C)S(=O)(=O)c1cccs1	-4.6	/
COC(=O)c1ccc(CN(C(C)=O)C(=O)Nc2ccc(C(=O)OC)cc2C)cc1	-5.2	0.7
Cc1ccc(S(=O)(=O)N(C)C[C@H]2Oc3ccc(NS(=O)(=O)c4cccs4)cc3C(=O)N([C@@H](C)CO)C[C@@H]2C)cc1	-3.5	0.7
C[C@]12CCC3c4ccc(OC(=O)c5ccccc5)cc4CCC3C1CCC2=O (some centres undefined)	-2.5	0.5
COc1ccc(NC(=O)N(C)C[C@@H]2Oc3ccc(NS(=O)(=O)c4ccc(F)cc4)cc3C(=O)N([C@@H](C)CO)C[C@@H]2C)cc1	2.6	0.4
O=P(CCNCc1cccnc1)(c1ccccc1)c1ccccc1	-1.4	0.2
C[C@@H]1CN([C@H](C)CO)C(=O)c2cc(NS(=O)(=O)c3cn(C)cn3)ccc2O[C@@H]1CN(C)Cc1ccccc1	0.6	0.5
C[C@H]1CN([C@@H](C)CO)C(=O)c2cccc(NS(C)(=O)=O)c2O[C@H]1CN(C)C(=O)Nc1ccc(C(F)(F)F)cc1	-4.5	/
O=C(O)C1CCCN1C(=O)OCC1c2ccccc2-c2ccccc21 (centres undefined)	3.9	0.5
CCOc1ccc(OCC)c(NC(=O)C2COc3ccccc3O2)c1 (centres undefined)	-6.8	/
CC1=CCC2C(=O)N(c3cccc(C(=O)NCc4ccccc4)c3)C(=O)C2C1 (centres undefined)	-11	-0.3
CCc1ccc2nc(N3CCC(C(=O)NC4CCCCC4)CC3)sc2c1	-1.6	-0.8
c1ccc2c(c1)CN1CCCC1=N2	-0.3	0.2
C[C@@H]1CN([C@@H](C)CO)C(=O)c2cccc(NS(=O)(=O)c3cn(C)cn3)c2O[C@@H]1CN(C)C(=O)Nc1ccccc1	19	/
COc1ccc(NC(=O)Nc2ccc3c(c2)C(=O)N([C@H](C)CO)C[C@H](C)[C@H](CN(C)S(=O)(=O)c2cn(C)cn2)O3)cc1	3.2	1.0
COC(=O)c1ccccc1-n1c(N)c(C#N)c(N)c(C#N)c1=S	-4.4	0.6
O=C(Nc1ccccc1)N(Cc1ccccc1)c1cccc2ccccc12	-4.6	/
CCCCN1C(=O)/C(=C/N(C(C)=O)c2ccccc2)SC1=S	-0.5	0.1
COc1ccc(CN(C)C[C@H]2Oc3ccc(NC(=O)CCC(F)(F)F)cc3C(=O)N([C@@H](C)CO)C[C@@H]2C)cc1	1.8	-0.4
C[C@@H]1CN([C@@H](C)CO)C(=O)c2cccc(NC(=O)NC3CCCCC3)c2O[C@@H]1CN(C)S(=O)(=O)c1cccs1	-1.9	/
N#C/C(C(N)=O)=C1\Oc2c(cc(O)cc2-c2ccccc2)S1	-9.5	/
O=C(O)c1ccccc1C(=O)NCc1ccccc1Cl	-0.4	2.0
O=C(OCCn1ncc2ccccc2c1=O)c1ccc2c(c1)CCO2	4.0	-1.2
C[C@H](CO)N1C[C@H](C)[C@H](CN(C)Cc2ccncc2)Oc2c(NC(=O)c3cnccn3)cccc2C1=O	1.2	/
C[C@@H]1CN([C@@H](C)CO)C(=O)c2cccc(NC(=O)c3cnccn3)c2O[C@@H]1CN(C)Cc1ccc(C(=O)O)cc1	-1.6	/
O=C(Nc1cc(-c2ccc(Cl)cc2)nn1-c1ccc(F)cc1)C1CCC1	4.1	0.0
Cc1ccc(C(=O)C2C(=O)C(=O)N(CCCN3CCOCC3)C23C(=O)N(C)c2ccccc23)cc1F (centres undefined)	4.7	-0.1
C[C@H]1CN([C@@H](C)CO)C(=O)c2cccc(NC(=O)c3cnccn3)c2O[C@@H]1CN(C)Cc1ccc2c(c1)OCO2	-6.5	/
COc1ccc(S(=O)(=O)Nc2cccc3c2O[C@H](CN(C)C)[C@@H](C)CN([C@@H](C)CO)C3=O)cc1	-4.4	/
C[C@@H]1O[C@@H](O[C@@H]2CC[C@@]3(C)C(CC[C@]4(C)C3CC=C3[C@@H]5CC(C)(C)CC[C@]5(C(=O)O[C@@H]5O[C@H](CO)[C@@H](O)[C@H](O)[C@H]5O)CC[C@]34C)[C@]2(C)CO)[C@H](O)[C@H](O[C@@H]2OC[C@@H](O)[C@H](O)[C@H]2O)[C@H]1O (some centres undefined)	-5.5	-0.7
Cc1ccc(S(=O)(=O)N(C)C[C@H]2Oc3c(NS(=O)(=O)c4ccccc4)cccc3C(=O)N([C@@H](C)CO)C[C@@H]2C)cc1	-4.6	/
C[C@@H]1CN([C@@H](C)CO)C(=O)c2cc(NC(=O)Nc3ccc(C(F)(F)F)cc3)ccc2O[C@@H]1CN(C)Cc1ccc(-c2ccccc2)cc1	-2.1	0.4
C[C@@H]1CN([C@H](C)CO)C(=O)c2cc(NC(=O)c3ccncc3)ccc2O[C@@H]1CN(C)Cc1ccccc1	1.8	0.1
COC(=O)c1ccc(NC(=O)CC2C(=O)N(c3ccc(F)cc3)C(=O)N2C2CCCC2)cc1 (centres undefined)	0.9	/
C[C@@H]1CN([C@@H](C)CO)C(=O)c2cccc(NS(=O)(=O)c3cccs3)c2O[C@@H]1CN(C)C(=O)Nc1ccc2c(c1)OCO2	2.1	/
CCOC(=O)c1cccc(C(=O)Nc2nc3ccc(OC)cc3s2)n1	2.6	-3.9
Cn1c(=S)[nH]c2sc3c(c2c1=O)CCC(C(C)(C)C)C3 (centres undefined)	1.2	-0.7
O=c1oc2ccccc2c(Nc2ccccc2)c1CN1CCCCC1	2.7	-0.2
CN(C)C(CNC(=S)Nc1ccccc1)c1cccnc1 (centres undefined)	-2.3	/
O=C1CC(c2ccccc2Cl)Cc2c1cnn2-c1nc2ccccc2s1 (centres undefined)	-2.1	-0.3
Cc1noc(C)c1NC(=O)N(C)C[C@@H]1Oc2c(NC(=O)Nc3ccc4c(c3)OCO4)cccc2C(=O)N([C@@H](C)CO)C[C@H]1C	-1.7	/
Cn1c(=O)oc2cc(S(=O)(=O)N3CCc4ccccc43)ccc21	23	/
C[C@H](CO)N1C[C@H](C)[C@H](CN(C)Cc2ccc(C(F)(F)F)cc2)Oc2c(NS(=O)(=O)c3ccccc3)cccc2C1=O	-0.9	/
CC1(C)Cc2c(cnn2-c2ccc(F)cc2)-c2nc3ccccc3nc21	-0.7	-0.4

In the list so far, these contain a Cl atom:
SMILES	BJeLR viability	A1 inh
Cc1noc(C)c1S(=O)(=O)Nc1ccc2c(c1)C(=O)N([C@@H](C)CO)C[C@H](C)[C@@H](CN(C)Cc1ccc(Cl)c(Cl)c1)O2	11	0.0
Cc1noc(C)c1S(=O)(=O)Nc1cccc2c1O[C@H](CN(C)S(=O)(=O)c1ccc(Cl)cc1)[C@H](C)CN([C@@H](C)CO)C2=O	6.2	/
O=C1CCC(c2ccccc2)C(=O)C1C(=O)c1ccc(Cl)cc1Cl (centres undefined)	6.6	-0.1
CC(=O)NC1C(OCCOc2ccc(Cl)cc2C)OC(CO)C(O)C1O (centres undefined)	5.6	0.0
O=C(O)c1ccccc1C(=O)NCc1ccccc1Cl	-0.4	2.0
O=C(Nc1cc(-c2ccc(Cl)cc2)nn1-c1ccc(F)cc1)C1CCC1	4.1	0.0
O=C1CC(c2ccccc2Cl)Cc2c1cnn2-c1nc2ccccc2s1 (centres undefined)	-2.1	-0.3

Further compounds:
SMILES	BJeLR viability	A1 inh
CCN(CC)C(=O)c1ccc(CS(=O)(=O)c2ccccc2C)o1	2.9	/
CN(C)NC(=S)NCc1ccc(F)cc1	-1.9	0.3
COc1ccc(CC(=O)N(C)C)cc1	-7.6	0.5
COC(=O)C1=CO[C@@H](O[C@@H]2O[C@H](CO)[C@@H](O)[C@H](O)[C@H]2O)[C@H]([C@H](C)OC(C)=O)[C@@H]1CC(=O)O	-6.5	0.1
CCN(CCC#N)C(=S)Nc1cc(C(F)(F)F)cc(C(F)(F)F)c1	2.4	0.3
COc1ccc2c(c1)c(CC(=O)OCC(=O)O)c(C)n2C(=O)c1ccc(Cl)cc1	1.2	-0.7
COc1ccc(NC(=O)c2cncc(NS(=O)(=O)c3ccc(C)cc3)c2)cc1OC	-4.4	-0.6
CCc1cccc(C(C)C)c1NC(=O)Nc1ccccc1	-4.5	-1.2
O=C(CN1C2=NCCCN2c2ccccc21)c1ccco1	5.6	-0.5
CCC(C)NC(=O)CSc1nc2ccsc2c(=O)n1NC(=O)c1ccccc1 (centres undefined)	2.8	0.6
CC(=O)Cc1cc(=O)c2c(C)cc(O)c(C3OC(CO)C(O)C(O)C3O)c2o1 (centres undefined)	-1.7	0.5
CCOC(=O)Cc1c(C)[nH]c(C(=O)OCC)c1CC(=O)OCC	2.0	0.3
Cc1ccc(S(=O)(=O)N(C)C[C@@H]2Oc3ccc(NC(=O)c4ccncc4)cc3C(=O)N([C@@H](C)CO)C[C@@H]2C)cc1	1.1	0.5
Cc1noc(C)c1NC(=O)Nc1ccc2c(c1)C(=O)N([C@@H](C)CO)C[C@@H](C)[C@@H](CN(C)S(=O)(=O)c1ccc(Cl)cc1)O2	-0.9	0.0
C[C@H](CO)N1C[C@H](C)[C@H](CN(C)Cc2ccccc2)Oc2c(NC(=O)c3ccncc3)cccc2C1=O	0.5	/
C[C@@H]1CN([C@H](C)CO)C(=O)c2cc(NC(=O)CCCCCC(=O)Nc3ccccc3N)ccc2O[C@H]1CN(C)Cc1ccc(-c2ccccc2)cc1	-5.7	/
O=C(O)CSc1n[nH]c(-c2cccs2)n1	-2.7	-0.3
CC(C)CCNc1nnnc2c1sc1nc(N3CCOCC3)c3c(c12)CCCC3	-5.6	-1.4
C[C@H]1CN([C@@H](C)CO)C(=O)c2cc(NC(=O)Nc3ccccc3)ccc2O[C@@H]1CN(C)S(=O)(=O)c1ccccc1	2.9	-0.8
C[C@H]1CN([C@@H](C)CO)C(=O)c2cccc(NS(=O)(=O)c3ccccc3)c2O[C@H]1CN(C)Cc1ccc(-c2ccccc2)cc1	-0.9	/

The closing two entries of the section before open the next one.
SMILES	BJeLR viability	A1 inh
C[C@H]1CN([C@@H](C)CO)C(=O)c2cc(NC(=O)Nc3ccccc3)ccc2O[C@@H]1CN(C)S(=O)(=O)c1ccccc1	2.9	-0.8
C[C@H]1CN([C@@H](C)CO)C(=O)c2cccc(NS(=O)(=O)c3ccccc3)c2O[C@H]1CN(C)Cc1ccc(-c2ccccc2)cc1	-0.9	/
CC(C)Cc1ccc(/C=C/C(=O)N2CCN(C/C=C/c3ccccc3)CC2)cc1	-1.3	-0.6
CC(C)c1cc(C(=O)Nc2cccnc2)no1	10	/
O=C1c2ccccc2C(=O)C1C1c2ccccc2Oc2ccccc21	-5.1	0.4
C[C@H]1CN([C@@H](C)CO)C(=O)c2cccc(NC(=O)C3CCCCC3)c2O[C@H]1CN(C)Cc1ccc2c(c1)OCO2	1.9	/
C[C@H]1CN([C@@H](C)CO)C(=O)c2cc(NC(=O)CCC(F)(F)F)ccc2O[C@@H]1CN(C)C(=O)Nc1ccccc1	-1.9	0.0
CC1(C)c2ccccc2N2CC(=O)NC21/C=C/c1ccc(N2CCOCC2)cc1 (centres undefined)	3.3	2.0
CC1(C)ONC(=O)N(c2ccccc2)C1=O	1.9	-0.5
C[C@@H]1CN([C@H](C)CO)C(=O)c2cc(NC(=O)Nc3ccc4c(c3)OCO4)ccc2O[C@@H]1CN(C)Cc1ccncc1	2.3	-0.2
